# Screening results: PubChem BioAssay, several laboratories
# MLL AF4-AF9 inh: inhibitors of human MLL-AF4/AF9 interaction; P42568; AlphaScreen, biotin-AF4 peptide binding to FLAG-AF9; actives 0.47% (n = 350,000); inhibition, % at 10 µM; AID 651704;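 active means every replicate reaching a set inhibition limit, whatever the replicate mean, cut at about 25% in these data; inconclusive means mean inhibition reaches that limit but some replicates miss it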;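 further: 0% = plate neutral control median and 100% = total signal loss; the record names both 10 and 1 µM as test concentration; the first replicate is given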
# Target sequence (P42568 whole entry, looked up): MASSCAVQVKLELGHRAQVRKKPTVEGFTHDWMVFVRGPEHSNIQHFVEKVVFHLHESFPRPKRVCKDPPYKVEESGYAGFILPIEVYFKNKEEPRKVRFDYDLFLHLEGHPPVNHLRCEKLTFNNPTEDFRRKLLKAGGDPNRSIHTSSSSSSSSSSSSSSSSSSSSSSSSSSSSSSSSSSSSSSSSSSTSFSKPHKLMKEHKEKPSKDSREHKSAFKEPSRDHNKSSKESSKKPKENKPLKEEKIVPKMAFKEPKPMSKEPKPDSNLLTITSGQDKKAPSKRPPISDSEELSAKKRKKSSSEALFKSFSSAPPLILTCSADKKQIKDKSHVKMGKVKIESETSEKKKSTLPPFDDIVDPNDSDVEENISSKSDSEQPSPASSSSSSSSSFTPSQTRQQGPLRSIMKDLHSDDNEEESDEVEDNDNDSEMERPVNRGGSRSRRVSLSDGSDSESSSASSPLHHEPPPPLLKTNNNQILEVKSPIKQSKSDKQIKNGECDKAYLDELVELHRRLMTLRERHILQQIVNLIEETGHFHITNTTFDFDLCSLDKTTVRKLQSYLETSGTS
# E coli growth: blocks Escherichia coli growth | OD600, 23 h; hits give low values | OD600 absorbance (concentration not given with the values) | actives 0.21% (n = 330,000);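 active means OD600 absorbance below the run mean of sample wells minus 3.6 SD, in any replicate, cut at about 0.56 in these data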;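 further: stock transfer was 300 nL into about 60 µL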
# FGF22 binding: binders of recombinant human FGF22 by thermal shift. calls only at 9.99 µM. actives 1.5% (n = 340,000). SYPRO orange fluorescence; percent of sucrose octasulfate shift, DMSO zero;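 active means melting point raised past a set limit in the mean and every replicate; inconclusive means no clear call; three in four hits are not shown here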
# Target sequence (Q9HCT0 whole entry, looked up): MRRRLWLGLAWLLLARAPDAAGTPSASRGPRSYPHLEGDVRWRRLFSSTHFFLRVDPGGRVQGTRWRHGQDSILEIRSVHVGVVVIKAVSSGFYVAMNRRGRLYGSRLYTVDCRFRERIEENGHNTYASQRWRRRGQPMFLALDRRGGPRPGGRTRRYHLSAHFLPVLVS
# T cruzi repl: blocks replication of Trypanosoma cruzi | T. cruzi beta-gal in NIH3T3, luminescence, 90 h | inhibition, % (no concentration beside the values) | actives 1.4% (n = 300,000) | AID 1885;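 active means mean inhibition across valid replicates above about 55%, limit read from the data; inconclusive means mean below that limit but half or more replicates reach it; inactive means mean below it, under half of replicates reach it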;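 further: signal also drops with host cell toxicity which is not excluded here; 0% = plate median of DMSO wells and 100% = zero luminescence signal; higher percent means less beta-gal luminescence so fewer parasites; stock transfer was 50 nL into about 50 µL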
# A1 inh: inhibitors of the anti-apoptotic protein A1, read as caspase activation. caspase activation, % (test concentration not listed). MEF A1-2A-BIM cells, Caspase-Glo 3/7 luminescence, 3 h; percent of clofoctol response, vehicle zero. actives 0.066% (n = 330,000). AID 2462;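 active means over half of replicate activation scores above 10%, or exactly half above 10 with the replicate mean above 10; inconclusive means replicate mean below 10 yet half the replicates above 10; inactive means over half of replicates below 10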;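 further: wells of about 30 µL received 50 nL stock; many hits fall short of the cut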
# UCH37 DUB inh: blocks the human deubiquitinase UCH37 | Q9Y5K5 | purified proteasome/UCH37, Ub-AMC cleavage fluorescence | inhibition, % (no concentration beside the values) | actives 0.33% (n = 330,000) | AID 588478;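 active means mean of two replicates above 20%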;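 further: 0% = compound-free wells with enzyme and 100% = wells lacking proteasome; stock transfer was 100 nL into about 20 µL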
# Target sequence (Q9Y5K5 whole entry, looked up): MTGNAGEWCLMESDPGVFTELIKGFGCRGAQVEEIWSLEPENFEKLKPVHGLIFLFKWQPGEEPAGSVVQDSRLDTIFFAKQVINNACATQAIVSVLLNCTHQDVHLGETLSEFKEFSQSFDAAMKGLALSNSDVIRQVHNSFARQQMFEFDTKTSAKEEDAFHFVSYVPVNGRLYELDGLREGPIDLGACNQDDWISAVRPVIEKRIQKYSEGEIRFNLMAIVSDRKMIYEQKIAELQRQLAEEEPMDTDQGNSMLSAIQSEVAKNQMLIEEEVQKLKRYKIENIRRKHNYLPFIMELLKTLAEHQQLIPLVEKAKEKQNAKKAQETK
#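 Material: Human UCH37 enzyme supplied as purified proteasome complex | Schedule: 30 min preincubation with enzyme, 25 min cleavage at room temperature | Detection: AMC fluorescence 355/460 nm | Measure: % inhibition of Ub-AMC cleavage fluorescence | Controls: Wells without proteasome as full block, compound-free enzyme plus substrate as uninhibited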
# Beta cell apopt: beta cell apoptosis inhibition; INS-1E cytokine-induced death, ATP luminescence, 48 h; percent of positive-control rescue, neutral wells zero; protection from apoptosis, % (concentration not given with the values); actives 0.8% (n = 300,000);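 active means all replicates at 75% or more, or half of them and the mean; inconclusive means half reach 75% but not the mean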;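 further: 0% = cytokine-treated negative control wells and 100% = positive control rescue; higher means more ATP so stronger rescue from cytokine killing; wells of about 40 µL received 100 nL stock; the first replicate is given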
# rRNA inh HTS: inhibitors of bacterial rRNA selective over humanized ribosomes | E. coli WT GFP vs humanized-ribosome RFP mutants, fluorescence, 24 h; hits give low values; DMSO median 0, no signal -100 | GFP signal change (wild-type ribosome), % (test concentration not listed) | actives 1.6% (n = 350,000) | AID 720706;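 active means significant combined selectivity score with lowered wild-type GFP, culture density cut under 30%, mutant RFP and density less affected; inactive means any of these conditions unmet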; further: one replicate is shown; some compounds called inactive have numbers as strong as hits
# rRNA inh HTS OD600: recorded beside rRNA inh HTS, whose call it bears; OD600 change, %; measured here: OD600 growth;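 optical density of the mix in the first replicate; 0 = DMSO median and -100 = no signal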
# rRNA inh HTS RFP: recorded beside rRNA inh HTS, whose call it bears; RFP signal change, %; measured here: RFP humanized mutant strains;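 first replicate; 0 = DMSO median and -100 = no signal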
# * = called active by the depositor; i = inactive; u = inconclusive; x = not tested or not shown.
SMILES,MLL AF4-AF9 inh,E coli growth,FGF22 binding,T cruzi repl,A1 inh,UCH37 DUB inh,Beta cell apopt,rRNA inh HTS,rRNA inh HTS OD600,rRNA inh HTS RFP
CCOC(=O)c1c(-c2ccccc2)oc2cc(CN(C)C)c(O)c(CN(C)C)c12,36.3*,0.702,i,33.6,0.8,3.2,-14.7,-0.4,-7.3,5.4
O=S(=O)(Nc1ccc(-c2ccc3nncn3n2)cc1)c1ccccc1Cl,-35.7,0.662,i,-9.5,0.7,6.7,7.9,0.0,0.8,2.5
CCC1CCCCN1C(=O)CSc1nnc(-c2ccc3c(c2)OCCO3)o1 (centres undefined),x,0.72,x,4.8,-0.4,1.6,0.6,x,x,x
Cc1ccccc1C(=O)NC1CCN(Cc2ccccc2)CC1,3.1,0.682,i,17.7,0.3,1.7,-6.4,22.0,14.4,1.2
COc1ccc(-c2[nH]ncc2CN2CCN(C(=O)c3ccco3)CC2)cc1F,4.2,0.669,x,6.5,0.2,2.6,-3.6,-4.9,-9.2,2.3
COc1ccc(C)cc1S(=O)(=O)N1CCN(S(=O)(=O)c2cc(C)ccc2OC)CC1,x,0.663,x,19.4,-0.1,-1.8,-6.5,x,x,x
COc1ccc(OC)c(S(=O)(=O)Nc2ccc3c(c2)N(C(C)=O)CCC3)c1,-10.6,0.688,i,-4.9,0.1,4.1,-1.0,5.4,-3.4,0.6
CCOCCCNC(=O)C(c1ccc(C)cc1)N1CCOCC1 (centres undefined),-2.1,0.725,i,0.9,-0.2,4.7,x,4.2,10.8,-0.5
O=C(c1cccc(S(=O)(=O)N2CCOCC2)c1)N(Cc1ccc(F)cc1)Cc1ccco1,3.7,0.735,i,7.4,1.1,3.1,-4.3,-22.6,-26.6,4.3
CCOP(=O)(CC(C(C)=O)C(O)c1ccccc1)OCC (centres undefined),-4.5,0.68,i,-18.0,-1.1,0.1,-12.2,18.1,20.1,17.1
COC(=O)c1ccc(CSc2nnc(NC(C)C)s2)o1,2.3,0.715,i,-11.6,-0.3,4.6,x,0.4,3.7,0.8
O=C(COC(=O)COc1ccc(Br)cc1)NCC1CCCO1 (centres undefined),-1.4,0.643,i,x,0.2,-2.9,-0.9,15.3,8.7,1.9
Cc1ccc(S(=O)(=O)N2CCC(C(=O)OCC(=O)NCCc3ccccc3)CC2)cc1C,3.3,0.684,i,0.7,-0.3,3.1,-0.2,-7.2,-14.9,-2.2
O=C(CSc1ccccc1)Nc1ccc(Cl)c(S(=O)(=O)N2CCOCC2)c1,-5.7,0.671,i,x,0.4,1.8,6.6,-1.0,-20.0,-0.6
COc1cccc(NC(=O)Nc2ccccc2C(N)=O)c1,1.4,0.705,i,-44.9,-3.3,3.7,-1.1,13.9,7.2,0.2

# 8 neighbouring entries from above:
SMILES,MLL AF4-AF9 inh,E coli growth,FGF22 binding,T cruzi repl,A1 inh,UCH37 DUB inh,Beta cell apopt,rRNA inh HTS,rRNA inh HTS OD600,rRNA inh HTS RFP
CCOC(=O)c1c(-c2ccccc2)oc2cc(CN(C)C)c(O)c(CN(C)C)c12,36.3*,0.702,i,33.6,0.8,3.2,-14.7,-0.4,-7.3,5.4
O=S(=O)(Nc1ccc(-c2ccc3nncn3n2)cc1)c1ccccc1Cl,-35.7,0.662,i,-9.5,0.7,6.7,7.9,0.0,0.8,2.5
CCC1CCCCN1C(=O)CSc1nnc(-c2ccc3c(c2)OCCO3)o1 (centres undefined),x,0.72,x,4.8,-0.4,1.6,0.6,x,x,x
Cc1ccccc1C(=O)NC1CCN(Cc2ccccc2)CC1,3.1,0.682,i,17.7,0.3,1.7,-6.4,22.0,14.4,1.2
COc1ccc(-c2[nH]ncc2CN2CCN(C(=O)c3ccco3)CC2)cc1F,4.2,0.669,x,6.5,0.2,2.6,-3.6,-4.9,-9.2,2.3
COc1ccc(C)cc1S(=O)(=O)N1CCN(S(=O)(=O)c2cc(C)ccc2OC)CC1,x,0.663,x,19.4,-0.1,-1.8,-6.5,x,x,x
COc1ccc(OC)c(S(=O)(=O)Nc2ccc3c(c2)N(C(C)=O)CCC3)c1,-10.6,0.688,i,-4.9,0.1,4.1,-1.0,5.4,-3.4,0.6
CCOCCCNC(=O)C(c1ccc(C)cc1)N1CCOCC1 (centres undefined),-2.1,0.725,i,0.9,-0.2,4.7,x,4.2,10.8,-0.5

# The list continues.
SMILES,MLL AF4-AF9 inh,E coli growth,FGF22 binding,T cruzi repl,A1 inh,UCH37 DUB inh,Beta cell apopt,rRNA inh HTS,rRNA inh HTS OD600,rRNA inh HTS RFP
O=C1c2cccnc2C(=O)N1Cc1ccc(S(=O)(=O)N2CCOc3ccccc32)cc1,-0.6,0.664,i,12.0,-0.6,3.0,-9.3,2.7,0.1,-4.7
Cc1nc(N2CCCCCC2)c2ccccc2n1,0.9,0.646,i,4.4,0.2,1.4,9.5,2.9,-8.8,-3.8
O=C(CNC(=O)c1cccs1)NCCc1ccco1,-0.2,0.665,i,x,-0.9,3.4,-1.0,x,x,x
CCOC(=O)c1c(N)sc(C(=O)N2CCCC2)c1C,x,0.761,x,5.6,1.3,1.2,-0.6,x,x,x
Cc1cc(C)c2c(=O)c(/C=C3\NC(=S)NC3=O)coc2c1,-3.4,0.67,i,-1.0,-2.1,3.2,0.0,5.5,-7.8,-1.7
CCC(=O)c1ccc(OCC(=O)OCC(=O)NC2CCCC2)cc1,-9.3,0.675,i,-9.2,-0.4,-1.5,-2.6,1.5,4.9,-0.7
Cc1nn(C(C)C(=O)N2CCCCC2)c(=O)c2c1sc1ccccc12 (centres undefined),x,0.757,x,-0.8,1.3,-3.6,-7.5,x,x,x
COC(=O)c1ccccc1NC(=O)c1cc(-c2ccc(C)cc2)on1,x,0.701,x,-19.2,0.6,-2.1,-5.7,x,x,x
S=c1[nH]nc(-c2ccco2)n1/N=C/C=C/c1ccco1,-4.2,x,i,1.8,0.0,x,-4.0,7.4,15.1,-2.0
CC(=O)c1ccc(NC(=O)CCCCCn2nnc3ccccc3c2=O)cc1,1.0,0.673,i,4.2,2.3,4.2,-0.3,8.2,7.3,-0.2
Cc1nnc(NC(=O)CSc2nnc(CC(=O)Nc3ccccc3F)n2C)s1,53.4*,0.636,i,-8.1,-0.3,0.0,1.2,7.0,7.4,-1.3
CCN(C(=O)COC(=O)/C=C/c1c(C)nn(-c2ccccc2)c1C)C1CCS(=O)(=O)C1 (centres undefined),5.6,0.71,i,5.1,-0.2,2.3,0.4,-1.5,5.7,0.4
O=C1N(c2cccc(Cl)c2)C(c2ccc(Cl)cc2)N2CCCN12 (centres undefined),x,0.671,x,4.4,0.2,3.1,-1.7,x,x,x
CCN(CC)S(=O)(=O)c1cc([N+](=O)[O-])ccc1NNC(=O)Nc1ccccc1,x,0.676,x,25.4,0.2,4.5,x,x,x,x
CN(C)CCCN(C(=O)c1ccc(S(=O)(=O)N2CCCCCC2)cc1)c1nc2ccc(F)cc2s1,13.0,0.628,i,28.2,0.9,2.0,-6.0,-26.5,-24.7,2.2
CNC(=O)c1ccc(-c2ccc(OC)cc2)s1,x,0.69,x,-6.1,-4.9,i,x,x,x,x
Cc1cc(C)cc(-c2nnc(SCC(=O)Nc3cc(C)on3)o2)c1,-3.4,0.684,i,x,x,1.1,x,-10.5,-12.0,3.4
O=C(Nc1ncc(Br)s1)C1CCCN1S(=O)(=O)c1cccc2cccnc12 (centres undefined),4.0,0.769,i,5.2,1.3,6.7,x,5.4,-4.3,2.8
O=C(CCn1c(=O)[nH]c2ccsc2c1=O)N1CCN(c2cccc(Cl)c2)CC1,x,0.688,x,16.0,-0.2,2.7,1.4,x,x,x
CC(C(=O)Nc1nc(-c2ccc(F)c(F)c2)cs1)N1C(=O)C2CC=CCC2C1=O (centres undefined),2.6,0.7,i,x,-0.6,1.6,1.2,-21.0,-40.0,3.6
CCOc1ccc(C(=O)CCC(=O)N(CC)CC(=O)NCc2cccs2)cc1,0.6,0.648,x,6.5,0.1,0.7,-0.4,-3.3,-5.7,0.7
Cc1ccc(/C(O)=C2/C(=O)C(=O)N(CC(=O)O)C2c2ccc([N+](=O)[O-])cc2)cc1 (centres undefined),0.2,x,i,-10.8,0.1,x,-3.6,8.6,3.1,0.3
O=C(NC1CCSC1=O)C1CC(=O)N(c2ccc(F)cc2)C1 (centres undefined),-6.1,0.713,i,-7.8,0.5,5.7,1.5,14.2,16.6,2.2
Cc1ccc(S(=O)(=O)N2CCCCC2)cc1NC(=O)CNCc1ccco1,1.1,0.693,i,-5.9,0.0,5.5,-2.4,-10.0,-12.9,-3.2
CC(C)NC(=O)CN1C(=O)CSc2ccc(S(=O)(=O)N3CCCC3)cc21,-0.7,0.654,i,-15.8,0.0,1.2,-5.1,8.2,7.2,-2.8
Cc1ccc(C(=O)N2CCN(c3nc4ccccc4n3C)CC2)cc1,-0.9,0.612,i,1.5,0.1,0.7,-3.5,-9.1,-6.8,-2.6
CCc1ccc(/C=C\C(=O)N2CCc3ccccc3C2)cc1,x,0.727,x,-20.1,-1.9,x,-4.5,x,x,x
O=C(COC(=O)c1ccccn1)NCCCc1ccccc1,x,0.723,x,7.1,-0.2,-2.0,-3.7,x,x,x
COc1ccc(CCNC(=O)CNC(=O)c2ccc3c(c2)OCO3)cc1OC,0.4,0.688,i,0.3,0.4,-2.2,-1.9,2.7,3.2,0.2
CCN(c1cccc(C)c1)S(=O)(=O)c1c(C)[nH]c(C)c1C(=O)N1CCCCC1,2.4,0.666,i,15.6,-0.6,3.7,x,-0.8,0.3,-1.7
CC(=O)c1c(C)[nH]c(C(=O)NCc2cccc(Cl)c2)c1C,-0.9,0.682,i,-14.1,0.0,0.4,3.1,9.8,6.6,7.7
COc1ccc(CCNC(=O)CSC(=O)c2ccccc2)cc1OC,-1.7,0.728,i,-14.7,0.1,10.5,5.0,9.2,-1.1,1.9
O=C1c2ccccc2CCCC12N=NCC2c1cccc2ccccc12 (centres undefined),x,0.738,x,u,-0.4,2.2,2.4,x,x,x
CCn1c(SCC(=O)N2CCc3ccccc3C2)nc2sc(C)c(C)c2c1=O,0.1,0.732,i,15.1,1.1,0.6,-2.2,7.3,4.4,-0.3
O=C(CN1CCc2ccccc2C1)NCc1ccco1,x,0.67,x,-2.1,0.3,4.7,0.4,x,x,x
COc1cc(OC)cc(-c2cc3cc(F)ccc3cn2)c1,-6.0,0.672,i,x,-16.2,4.4,18.8,-6.5,-3.9,-12.7
COc1ccc(C(=O)OCC(=O)c2c(N)n(C)c(=O)n(C)c2=O)cc1OC,-1.0,0.635,i,-17.1,-0.6,-0.2,0.9,5.5,11.9,3.4

# An excerpt. The share of hits here may be higher or lower than overall.
